KCNQ2 inh = KCNQ2 potassium channel inhibitors, primary screen, cell-based, CHO-K1, FluxOR thallium flux, B-score (AID 2156); 20 min; hits give low values; only compounds with negative scores are shown here; some inactives read as strong as hits; actives 1.1% (n = 310,000); B-score at 10 µM;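 active = fluorescence ratio B-score at most minus 3 library SDs, with starting brightness B-score within 2 library SDs, cut at about -5.5 in these data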
Target sequence (O88943 whole entry, looked up): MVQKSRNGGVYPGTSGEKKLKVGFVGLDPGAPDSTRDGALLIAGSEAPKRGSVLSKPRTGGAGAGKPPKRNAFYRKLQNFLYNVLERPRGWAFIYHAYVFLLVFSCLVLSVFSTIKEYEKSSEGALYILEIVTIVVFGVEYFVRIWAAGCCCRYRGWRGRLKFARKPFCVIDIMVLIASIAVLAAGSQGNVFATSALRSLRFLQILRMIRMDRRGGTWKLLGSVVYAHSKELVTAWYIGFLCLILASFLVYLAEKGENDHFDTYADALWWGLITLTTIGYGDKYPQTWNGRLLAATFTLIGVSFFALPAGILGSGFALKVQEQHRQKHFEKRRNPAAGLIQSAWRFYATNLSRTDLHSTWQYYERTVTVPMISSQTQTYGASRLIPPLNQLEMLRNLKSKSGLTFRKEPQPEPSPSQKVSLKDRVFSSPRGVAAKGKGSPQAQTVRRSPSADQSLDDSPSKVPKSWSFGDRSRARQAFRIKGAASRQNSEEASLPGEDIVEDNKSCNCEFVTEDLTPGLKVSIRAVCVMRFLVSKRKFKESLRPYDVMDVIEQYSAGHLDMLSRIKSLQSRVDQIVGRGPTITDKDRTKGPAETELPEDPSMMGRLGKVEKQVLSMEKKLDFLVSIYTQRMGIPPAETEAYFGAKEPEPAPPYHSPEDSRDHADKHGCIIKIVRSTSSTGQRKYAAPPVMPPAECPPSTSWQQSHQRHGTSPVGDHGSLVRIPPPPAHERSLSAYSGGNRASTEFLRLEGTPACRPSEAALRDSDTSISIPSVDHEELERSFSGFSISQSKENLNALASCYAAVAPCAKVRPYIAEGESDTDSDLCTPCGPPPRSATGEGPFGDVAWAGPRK
KCNQ2 inh baseline = also measured in KCNQ2 inh; calls as there; B-score; measured here: initial fluorescence intensity artifact check;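 brightness before thallium and not channel activity; 0 = typical well and far values either way flag optical interference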
* = called active by the depositor; i = inactive; & = joins results of further samples.

A first look:
Molecule,KCNQ2 inh,KCNQ2 inh baseline
NC(=S)NNc1c(F)c(F)c(F)c(F)c1F,i,-0.89
Cc1[nH]cnc1C(=O)N/N=C/c1ccc([N+](=O)[O-])s1,i,1.31
CCOC(=O)C1(Cc2cccc(OC)c2)CCN(Cc2cccc(OCC)c2O)CC1,i,-0.14
Cc1cccc(-c2noc(-c3ccc(Cl)cc3[N+](=O)[O-])n2)c1,i,-1.5
CC(NC(=O)Nc1ccc(Cl)cc1)c1ccc2c(c1)OCO2 (stereo not given),i,0.77

Results, from the start:
Molecule,KCNQ2 inh,KCNQ2 inh baseline
NC(=S)NNc1c(F)c(F)c(F)c(F)c1F,i,-0.89
Cc1[nH]cnc1C(=O)N/N=C/c1ccc([N+](=O)[O-])s1,i,1.31
CCOC(=O)C1(Cc2cccc(OC)c2)CCN(Cc2cccc(OCC)c2O)CC1,i,-0.14
Cc1cccc(-c2noc(-c3ccc(Cl)cc3[N+](=O)[O-])n2)c1,i,-1.5
CC(NC(=O)Nc1ccc(Cl)cc1)c1ccc2c(c1)OCO2 (stereo not given),i,0.77
Cc1ccccc1S(=O)(=O)Nc1ncnc2ccccc12,i,0.59
CC(=O)c1sc(NC(=O)CCS(=O)(=O)c2ccc(Cl)cc2)nc1C,i,0.46
O=C(Nc1ccccc1C(=O)NCc1ccccc1)c1ccccc1,i,0.21
CCCCC(=O)N(CCOC)c1nnc(-c2ccc(OC)cc2)s1,i,-0.19
COc1ccc(C)cc1NC(=O)C(OC(=O)CNC(=O)c1ccc(Oc2ccccc2)cc1)c1ccccc1 (stereo not given),i,0.05
CCCC(C)C(=O)Nc1nnc(C)s1 (stereo not given),i,-0.95
COc1ccc(-c2cc(C(=O)Nc3ccccc3)on2)cc1,i,0.89
Cc1c(S(=O)(=O)NC(C)c2ccccc2)c(=O)n(C)c(=O)n1C (stereo not given),i,2.15
COCCOC(=O)C1=C(C)NC(C)=C(C(=O)OCCOC)C1/C=C/c1ccccc1OC,i,-0.02
CCOC(=O)c1sc(NC(=O)CC(C)c2ccccc2)nc1C (stereo not given),i,0.57
CS(=O)(=O)c1ccc2nc(NC(NC(=O)c3ccco3)(C(F)(F)F)C(F)(F)F)sc2c1,i,0.84
CC(=O)c1c(C)[nH]c(C(=O)Nc2ccc(Cl)cc2F)c1C,i,-0.85
Fc1cccc(-n2c(-c3cccs3)nc3nc4ccccc4nc32)c1,i,-0.13
O=C(Nc1cccc(S(=O)(=O)N2CCCCC2)c1)c1ccc2ccccc2n1,i,0.21
Cc1cc(-c2ccccc2)nc2c(Br)c(=O)[nH]n12,i,-0.9
CCCCn1c(N)c(N(CC(C)C)C(=O)CC2OC(=O)c3ccccc32)c(=O)[nH]c1=O (stereo not given),i,0.63
CCCOc1nc(N)c(C#N)c(-c2ccccc2F)c1C#N,i,0.68
Cc1[nH]c2ccccc2c1CCO,i,-0.3
Cc1c(NC(=S)N/N=C/C=C/c2ccc([N+](=O)[O-])cc2)c(=O)n(-c2ccccc2)n1C,i,0.6
CC(Oc1ccccc1)C(=O)NC1CCCCCCC1 (stereo not given),i,-1.23
O=C(N/N=C\c1ccccn1)c1ccccc1O,i,0.69
Cc1nnc(NC(=O)CSc2ccc(-c3cccnc3)nn2)s1,i,-0.08
C=CCNC(=O)N1CCC(n2nccc2NC(=O)CCc2ccccc2)CC1,i,0.56
N#CCc1c(C#N)c(N)nc(N2CCN(Cc3ccc4c(c3)OCO4)CC2)c1C#N,i,-0.09
COC(=O)/C(=N\Nc1ccccc1)Sc1nnc(-c2ccc(OC)cc2)n1C,i,-0.74
C1CCc2c(nnc3c2-c2nonc2CC3)C1,i,1.25
CC(C)(C)OCC(O)CN1CCN(C(=O)c2ccccc2)CC1 (stereo not given),i,1.29

One compound at a time, from the list above. Order of values: KCNQ2 inh | KCNQ2 inh baseline
Listed for Cc1c(S(=O)(=O)NC(C)c2ccccc2)c(=O)n(C)c(=O)n1C (stereo not given) → i | 2.15
Listed for N#CCc1c(C#N)c(N)nc(N2CCN(Cc3ccc4c(c3)OCO4)CC2)c1C#N → i | -0.09
Listed for Cc1ccccc1S(=O)(=O)Nc1ncnc2ccccc12 → i | 0.59
Listed for NC(=S)NNc1c(F)c(F)c(F)c(F)c1F → i | -0.89
Listed for CC(C)(C)OCC(O)CN1CCN(C(=O)c2ccccc2)CC1 (stereo not given) → i | 1.29

Remaining list, next part:
Molecule,KCNQ2 inh,KCNQ2 inh baseline
Cc1ccc(CNC(=O)CCOc2ccc(C(C)(C)C)cc2)cc1,i,1.8
COc1cc2c(cc1OC)C(CSc1ccccc1C(=O)O)=NC(C)(C)C2,i,0.25
COC(=O)c1c(C)[nH]c(C(=O)OC(C)C(=O)N2CCOCC2)c1C (stereo not given),i,-1
CCOCCCn1cnc2c3cc(F)ccc3n(C)c2c1=O,i,-1.58
COC(=O)CCC(=O)N1CCOCCOCCOCC1,i,0.45
C[C@@H](CN1C2=NC[C@H](Cc3ccc(O)cc3)N2C[C@H]1Cc1ccc(O)cc1)NC(=O)CCC1CCCCC1,i,1.63
CC(=O)Nc1ccc(S(=O)(=O)N(Cc2ccccc2)c2ccccc2)cc1,i,-0.37
CCOc1nc(-c2ccc(C)cc2)ccc1-c1noc(COC)n1,i,0.06
Cc1ccc(NS(=O)(=O)c2c(C)[nH]c(=O)[nH]c2=O)cc1C,i,-0.98
Cc1ccc(C(=O)N/N=C\c2ccccc2[N+](=O)[O-])cn1,i,-0.12
O=C(O)CN1C(=O)CSc2ccccc21,i,0.41
Cc1cc2ccccc2c(=O)n1CC(=O)NCCC1=CCCCC1,i,0.71
Cc1cccc(NC(=O)CCS(=O)(=O)c2cccc3nonc23)c1C,i,-0.38
O=[N+]([O-])c1cc(-n2cccc2)ccc1N1CCOCC1,i,0.61
CC(C)NS(=O)(=O)c1ccc(OCC(=O)Nc2ccc3c(c2)OCCO3)cc1,i,-1.72
CCCC(=O)N1CCCC(c2nc(-c3cccc(OC)c3)no2)C1 (stereo not given),i,0.9
O=[N+]([O-])C1=CC=C2C(=NC3(CCCCC3)N2O)C1=NCCO,i,-0.83
CC(=O)Nc1ccc(NC(=O)C(C)OC(=O)/C=C/c2cccs2)cc1 (stereo not given),i,0.18
COc1ccccc1OCC(=O)N(Cc1nc(-c2ccc(Cl)cc2)no1)C(C)C,i,-0.06
Cc1ccc(C(=O)Nc2ccccc2N2CCN(C(=O)C(C)C)CC2)cc1,i,0.22
C[n+]1ccccc1/C=N/O,i,4.3&6.87
Cc1c(C(=O)OCC(=O)NC(C)c2ccccc2)oc2ccccc12 (stereo not given),i,0.6
COc1ccc2nc(SCc3ccccc3C)nc(C)c2c1,i,-0.29
CCNC(=O)/C(C#N)=C/c1c(N(Cc2ccccc2)Cc2ccccc2)nc2ccccn2c1=O,i,-1.01
CC1CCCC(NC(=O)COC(=O)/C=C/c2ccc(S(=O)(=O)N3CCOCC3)cc2)C1C (stereo not given),i,0.01
Cc1cc(-c2csc(N)n2)c(C)n1-c1ccc(Cl)c(Cl)c1,i,-2.27
FC(F)(F)c1ccc(NC(=S)NCc2ccccc2)cc1,i,0.91
FC(F)(F)c1cccc(N2Cc3ccccc3C2)c1,i,0.57
CC(C)C(NC(=O)c1ccccc1Cl)C(=O)OCc1nc2scc(-c3ccccc3Cl)c2c(=O)[nH]1 (stereo not given),i,-0.3
CCOc1ccc(-n2nnc3c(=O)n(CC(=O)c4ccccc4)cnc32)cc1,i,1.48
CC(C)CC(c1nnnn1C(C)(C)C)N1CCN(Cc2ccccc2)CC1 (stereo not given),i,0.2
COc1ccc(C2SCC(=O)N2c2nc3ccccc3s2)cc1 (stereo not given),i,-2.32
COc1ccccc1C(=O)N/C(=C/c1ccc(Br)cc1)C(=O)NCCCn1ccnc1,i,1.53
O=C(NCC1CCCO1)c1cccc(NC(=O)c2ccccc2)c1 (stereo not given),i,1.3
C=C(C(=O)c1ccccc1)C(C)CC(=O)c1ccccc1 (stereo not given),i,0.12
COc1cccc(CNC(=O)CC(NC(=O)c2ccccc2)c2ccccc2)c1 (stereo not given),i,-0.13
O=C(Nc1ccc(N2C(=O)CCC2=O)cc1Cl)c1cccs1,i,0.31
CC1=C(C)/C(=N\OC(=O)/C=C/c2ccccc2)C=CC1=O,i,0.71
Cc1ccc(NC(=O)C2(NC(=O)c3ccccn3)CCCCC2)cc1Br,i,0.25
Cc1cc(NC(=O)COC(=O)C2CCN(S(=O)(=O)c3cccc(Cl)c3Cl)CC2)no1,i,0.25
CCOc1ccc(NCC(=O)Nc2ccc(C)cc2C)cc1,i,-0.41
Cc1ccc(CC(=O)N2CCN(c3cccc(C(F)(F)F)c3)CC2)cc1,i,-0.79
CCOc1cccc(CN(C)CC2CCCN(CCc3ccc(Cl)cc3)C2)c1O (stereo not given),i,-1.18
CCOC(=O)c1cnc2ccccc2c1NCCc1ccc(OC)c(OC)c1,i,-2.1
CC1CC1C(=O)N(CCC1=CCCCC1)c1c(N)n(Cc2ccccc2)c(=O)[nH]c1=O (stereo not given),i,-0.28
Cc1ccc(C)c(C(C)NC(=O)C2C3CCC(O3)C2C(=O)O)c1 (stereo not given),i,-0.13
O=C(/C=C/c1ccc(Cl)cc1Cl)Nc1ccncc1,i,-0.03
C/C(=N\Nc1cccc(Cl)c1)C1(C)N(O)C(C)(C)C(c2ccco2)=[N+]1[O-] (stereo not given),-6.36*,-0.04*
CC(C)Cn1c(N)c(S(=O)(=O)c2cccs2)c2nc3ccccc3nc21,i,0.17
O=c1cc(-c2cccc(Cl)c2)oc2cccc(O)c12,i,-0.91
CCOc1ccc(S(=O)(=O)N2CCCC(C(=O)Nc3cccc(C)c3)C2)cc1 (stereo not given),i,0.44
CCc1cccc(C)c1NC(=O)COC(=O)CNC(=O)c1cccs1,i,0.47
CCOC(=O)c1oc2ccccc2c1NC(=O)c1cccc(OC)c1OC,i,2.18
COc1ccc(/C=C(/NC(=O)c2ccc(C)cc2)C(=O)NCc2ccncc2)cc1,i,-0.48
O=S(=O)(c1ccc(OCC(O)CN2CCc3ccccc3C2)cc1)N1CCOCC1 (stereo not given),i,-1.61
CCOC(=O)C1(Cc2ccc(OC)cc2)CCN(C(=O)Cc2cccnc2)CC1,i,-0.38

Continued.
Molecule,KCNQ2 inh,KCNQ2 inh baseline
O=c1[nH]c2cccc(F)c2n2cccc12,i,-0.13
CCc1sc(C(=O)NCCCn2ccnc2)cc1Br,i,0.03
COc1cccc(N=NC2C(=O)N(C(N)=S)N=C2C)c1 (stereo not given),i,-1.78
O=C(CC1C(=O)NCCN1C(=O)Nc1ccccc1)Nc1cc(Cl)cc(Cl)c1 (stereo not given),i,-0.08
C=C(C)Cn1c(CCNC(=O)CC)nc2ccccc21,i,-0.56
NC(=NCCc1c[nH]c2ccccc12)NS(=O)(=O)c1ccc2ccccc2c1,i,2.05
O=[N+]([O-])c1ccccc1-c1cc(-c2cc(Cl)ccc2O)n[nH]1,i,0.87
O=C(Cn1c(=O)n(CC2CCCO2)c(=O)c2ccccc21)c1ccccc1 (stereo not given),i,1.66
CCn1cnc2scc(-c3ccc(OC)cc3)c2c1=O,i,-0.64
NS(=O)(=O)c1ccc(NC(=O)Nc2cccc3ccccc23)cc1,i,2.04
Cc1cccc(NC(=O)c2ccccc2NC(=O)C(C)(C)C)n1,i,1.67
O=C(Cc1ccccc1)Nc1ccccc1N1CCOCC1,i,0.91
CCCC(=O)NC(c1ccc(C)cc1)c1ccc2cccnc2c1O (stereo not given),i,1.51
CCN(CC)S(=O)(=O)c1ccc(NC(=O)C(OC)c2ccccc2)cc1 (stereo not given),i,-0.21
Cn1nc(C(=O)Nc2ccc(S(=O)(=O)N3CCOCC3)cc2)c2ccccc2c1=O,i,1.87
C/C(=N\NC(=S)NC(C)C)c1ccccc1OC(F)F,i,-0.16
Cc1ccccc1-c1nc(C#N)c(NCc2ccco2)o1,i,0.81
O=C(NNC(=S)Nc1ccc(F)cc1F)c1ccco1,i,-0.7
O=C(Nc1ccc2c(c1)OCO2)C1CC(=O)N(c2cccc(Cl)c2)C1 (stereo not given),i,-1.08
CC(=O)N1CCN(CC(O)COc2ccc(OCc3ccccc3)cc2)CC1 (stereo not given),i,1.7
CC(=O)c1ccc(-c2ccc(C(=O)NCC3CCCO3)o2)cc1 (stereo not given),i,0.8
Nc1ccc2nc(N3CCOCC3)sc2c1,i,-2.54
Cc1ccc(-c2csc(N3CCN(c4cc5c(cc4Cl)nc(-c4ccncc4)n5CCOCCO)CC3)n2)cc1,i,-0.01
O=C(NNC(=O)C1CC1)c1cc(Cl)nc2ccccc12,i,-1.04
Cc1nn(CC(=O)NC2CCCCC2)c(=O)c2cccn12,i,-1.28
FCCCOc1ccc(-c2nccc(-c3ccc(Cl)cc3)n2)cc1,i,-0.36
O=C(Nc1ccccc1O)c1ccc(Cl)cc1,i,0.07
Cc1nc2sc(C(c3cccs3)N3CCN(c4cccc(Cl)c4)CC3)c(O)n2n1 (stereo not given),i,-1.41
CCOC(=O)Cc1csc(N/C(=N/S(=O)(=O)c2ccc(F)cc2F)c2ccccc2)n1,i,-0.32
CCN(CC(=O)NC(C)C)C(=O)CCNC(=O)c1ccc(Cl)cc1,i,0.65

Screening data as filed in PubChem.

Not all compounds are listed; rates above refer to the full screens.
